# CtBP-E1A inh: CtBP/E1A binding inhibition | AlphaScreen GST-E1A/His-CtBP binding, 1536-well; active compounds read low; control for the full effect not named in the record | activity change, % (test concentration not listed) | hit rate 0.49% among 340,000 | AID 651724; in the data active means activity change below about -65%; inconclusive means about -30% to -65%; inactive means above about -30%; also: % is scaled to controls: 0 for no effect and ±100 for the full control effect
#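 AlphaScreen with 125 nM GST-E1A and 125 nM His-CtBP (5X stocks) in Tris pH 8.0, 300 mM NaCl, BSA, Tween 20, TCEP. Compounds preincubated 2 h at 37 deg C, then glutathione donor/nickel acceptor beads added for 1 h at 37 deg C in dark.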
# TRPV1 potentiator: human TRPV1 potentiation; Q8NER1; TRPV1-expressing cells, Fluo-8 calcium influx, capsaicin EC20 potentiation; host cell line not named in the record; control for the full effect not named in the record; potentiation, % at 8.33 µM; hit rate 0.02% among 320,000; active means potentiation above 80%; inconclusive means 30% to 80%; inactive means below 30%; also: 0% is about no effect
# Target sequence (Q8NER1 whole entry, looked up): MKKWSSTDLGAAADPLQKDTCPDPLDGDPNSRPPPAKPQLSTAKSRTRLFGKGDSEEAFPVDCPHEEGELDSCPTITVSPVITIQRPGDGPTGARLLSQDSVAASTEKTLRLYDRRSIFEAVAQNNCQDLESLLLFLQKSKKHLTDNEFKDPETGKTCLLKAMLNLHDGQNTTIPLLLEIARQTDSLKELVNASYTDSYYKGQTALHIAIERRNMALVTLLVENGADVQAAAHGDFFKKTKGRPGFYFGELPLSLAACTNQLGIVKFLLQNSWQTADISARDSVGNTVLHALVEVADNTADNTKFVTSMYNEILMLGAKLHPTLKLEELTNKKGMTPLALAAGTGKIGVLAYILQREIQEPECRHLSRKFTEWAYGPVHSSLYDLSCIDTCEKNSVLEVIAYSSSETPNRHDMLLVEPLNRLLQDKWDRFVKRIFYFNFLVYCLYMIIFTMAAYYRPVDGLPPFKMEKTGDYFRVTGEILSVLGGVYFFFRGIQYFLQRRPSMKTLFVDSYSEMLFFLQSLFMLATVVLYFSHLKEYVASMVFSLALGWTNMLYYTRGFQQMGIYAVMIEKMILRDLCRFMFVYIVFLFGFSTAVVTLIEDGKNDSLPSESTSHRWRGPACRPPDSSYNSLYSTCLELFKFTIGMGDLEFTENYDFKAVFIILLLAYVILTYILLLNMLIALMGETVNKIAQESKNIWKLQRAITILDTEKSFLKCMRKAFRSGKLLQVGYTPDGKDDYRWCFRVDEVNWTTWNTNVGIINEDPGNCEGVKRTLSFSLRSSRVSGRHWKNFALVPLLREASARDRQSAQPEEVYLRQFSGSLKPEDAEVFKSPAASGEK
#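 Cells expressing TRPV1 were dye-loaded with Fluo-8 and read kinetically: 10 s baseline, 3 min after compound (agonist portion), then 2 min after EC20 capsaicin (allosteric enhancer portion). Calcium-bound dye fluorescence at 480/520 nm.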
# TRPML1 blocker: inhibitors of human TRPML1 channel | AID 624415 | activity change, negative = inhibition, % (test concentration not listed) | hit rate 0.02% among 390,000 | Q9GZU1 | TRPML1-inducible cells, Ca2+ dye fluorescence, FDSS; active compounds read low; inhibition of EC80 agonist-evoked calcium signal; in the data active means activity change below about -50%; inconclusive means about -30% to -50%; inactive means above about -30%;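 also: stimulus is agonist 54-4 at its EC80 concentration; % is scaled to controls: 0 for no effect and ±100 for the full control effect; compound concentration not given in the record; the text of the record puts the active cut at -80%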
#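 Tet-induced TRPML1-DL cells loaded with Ca8 no-wash calcium dye were read kinetically on FDSS. Compound addition was followed by EC80 agonist 54-4 (4 uM final); inhibition was read over 110 s.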
# TRPML1 ag: activates the human TRPML1 channel; Q9GZU1; TRPML1-expressing cells, Ca2+ dye fluorescence, FDSS; host cell line not named in the record; reference of the full effect not given here; activation, % (concentration not given with the values); hit rate 0.12% among 410,000; in the data active = activation above about 50%; inconclusive = about 30% to 50%; inactive = below about 30%; also: 0% is about no effect; the text of the record puts the active cut at 80%
#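 Tet-induced TRPML1-DL cells, 1,500 per well, cultured overnight, were loaded with a no-wash Ca2+ dye for 45–90 min. Calcium fluorescence was recorded on the FDSS for 110 s after compound addition, before the EC80 agonist (4 uM 54-4) was added.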
# Six1-Eya2 blk: blocks human Six1 binding to Eya2 | AlphaScreen GST-Six1/His-Eya2 binding, biochemical; active compounds read low; control for the full effect not named in the record | activity change, % (test concentration not listed) | hit rate 0.56% among 360,000 | AID 651725; in the data active = activity change below about -65%; inconclusive = about -30% to -65%; inactive = above about -30%; also: % is scaled to controls: 0 for no effect and ±100 for the full control effect
#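 Compounds are tested against tagged Six1 and Eya2 proteins bridged by glutathione donor and nickel acceptor beads; after a one-hour incubation at 37 °C without light, AlphaScreen emission is recorded.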
# D2 PAM: potentiates the human D2 dopamine receptor allosterically; potentiation, % (test concentration not listed); DiscoveRx D2 beta-arrestin cells, luminescence, 90 min; 100% = 57 uM dopamine signal; hit rate 0.23% among 360,000; AID 624464; P14416; active = potentiation of 50% or more; inconclusive = 30% to 50%; inactive = 30% or less;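 also: compound concentration not given in the record; tested on top of an EC20 dose of dopamine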
#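 D2 cells co-treated with compound plus 50 nM dopamine (EC20) for 90 min at 37 deg C to detect potentiation. Beta-arrestin recruitment was read as enzyme-fragment luminescence after 1 h at ambient temperature. Full response was set by 57 uM dopamine.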
# * = called active by the depositor; ? = inconclusive; . = no result given; & = joins results of further samples. Rows are unselected, and some 0.95% of all compounds hit somewhere here.
# Sample of the layout:
# Values in the order – TRPV1 potentiator	Six1-Eya2 blk	TRPML1 blocker	CtBP-E1A inh	D2 PAM	TRPML1 ag
> CC(C)C[C@H]1CNC(=S)N1CC1CCCN1C[C@H](Cc1ccc(O)cc1)N1C[C@H](Cc2ccccc2)N(CC2CCCCCC2)C1=S (some centres undefined)
→ .	-10.1	2.9	-3.5	-13.3	-0.7
> CCCN1C(=O)/C(=C/C=C2\N(CC)c3ccccc3C2(C)C)SC1=S
→ -1.6	-21.4	1.3	-2.7	-19.6	26.7
> Fc1ccc(SCCc2ccccn2)cc1
→ .	3.4&6.3	-14.2&-4.4	0.0&1.5	-4.8&-4.0	1.6&-0.3
> O=S(=O)(c1cnc(Cl)c(Cl)c1)N1CCc2ccccc21
→ 6.7	7.8	0.1	.	-12.3	0.5
> O=C(O)c1nn(CCOc2c(Cl)cccc2Cl)c(=O)c2ccccc12
→ 26.5	4.5	12.8	3.4	-1.7	6.6
> Cc1cc(N)n2ncc(-c3ccccc3)c2n1
→ 2.1	-22.5	3.8	2.4	-8.8	-1.1
> O=C(CSc1ccc2c(c1)OCCO2)Nc1cccc(S(=O)(=O)N2CCCCC2)c1
→ -1.5	5.3	-29.1	-7.5	-11.5	-0.4
> O=C1CSC(=S)N1/N=C/c1cccc(C(F)(F)F)c1
→ -17.1	-22.2	-13.1	?	3.1	0.9
> O=S(=O)(NC1CCCCC1N1CCC(O)CC1)c1ccc(Cl)cc1 (centres undefined)
→ -8.6	4.6	-14.0	0.7	-8.1	-0.3
> CCOC(=O)C1(Cc2cccc(OC)c2)CCN(Cc2ccc(OC)c(O)c2)CC1
→ -4.6	-3.6	2.7	-4.0	6.6	2.2
> Cc1cc(C)c(NC(=O)CCN2CCN(Cc3ccccc3)CC2)c(C)c1
→ .	-0.6	0.4	15.8	-10.7	1.2
> Cc1cc(C(=O)OCC(=O)NCc2ccccc2)c2ccccc2n1
→ .	-11.8	-5.2	5.2	-22.2	1.6
> COc1cccc(/C=N/Nc2ccc([N+](=O)[O-])cc2)c1O
→ 17.0	-8.4	-8.3	-2.5	-8.1	8.5
> Cn1c2ccccc2c2cnn(CC(=O)N3CCCCC3)c(=O)c21
→ ?	1.2	3.5	7.8	-8.0	0.9
> Cc1nccn1CCc1n[nH]c(=S)n1Cc1ccccc1
→ -2.6	8.5	7.8	-7.0	-6.6	-0.2
> NNC(=O)CCN(Cc1ccco1)S(=O)(=O)c1ccc(Cl)cc1
→ -8.3	-0.5	4.5	-14.1	-7.6	2.0

# This part in full, repeating the preview:
# Values in the order – TRPV1 potentiator	Six1-Eya2 blk	TRPML1 blocker	CtBP-E1A inh	D2 PAM	TRPML1 ag
> CC(C)C[C@H]1CNC(=S)N1CC1CCCN1C[C@H](Cc1ccc(O)cc1)N1C[C@H](Cc2ccccc2)N(CC2CCCCCC2)C1=S (some centres undefined)
→ .	-10.1	2.9	-3.5	-13.3	-0.7
> CCCN1C(=O)/C(=C/C=C2\N(CC)c3ccccc3C2(C)C)SC1=S
→ -1.6	-21.4	1.3	-2.7	-19.6	26.7
> Fc1ccc(SCCc2ccccn2)cc1
→ .	3.4&6.3	-14.2&-4.4	0.0&1.5	-4.8&-4.0	1.6&-0.3
> O=S(=O)(c1cnc(Cl)c(Cl)c1)N1CCc2ccccc21
→ 6.7	7.8	0.1	.	-12.3	0.5
> O=C(O)c1nn(CCOc2c(Cl)cccc2Cl)c(=O)c2ccccc12
→ 26.5	4.5	12.8	3.4	-1.7	6.6
> Cc1cc(N)n2ncc(-c3ccccc3)c2n1
→ 2.1	-22.5	3.8	2.4	-8.8	-1.1
> O=C(CSc1ccc2c(c1)OCCO2)Nc1cccc(S(=O)(=O)N2CCCCC2)c1
→ -1.5	5.3	-29.1	-7.5	-11.5	-0.4
> O=C1CSC(=S)N1/N=C/c1cccc(C(F)(F)F)c1
→ -17.1	-22.2	-13.1	?	3.1	0.9
> O=S(=O)(NC1CCCCC1N1CCC(O)CC1)c1ccc(Cl)cc1 (centres undefined)
→ -8.6	4.6	-14.0	0.7	-8.1	-0.3
> CCOC(=O)C1(Cc2cccc(OC)c2)CCN(Cc2ccc(OC)c(O)c2)CC1
→ -4.6	-3.6	2.7	-4.0	6.6	2.2
> Cc1cc(C)c(NC(=O)CCN2CCN(Cc3ccccc3)CC2)c(C)c1
→ .	-0.6	0.4	15.8	-10.7	1.2
> Cc1cc(C(=O)OCC(=O)NCc2ccccc2)c2ccccc2n1
→ .	-11.8	-5.2	5.2	-22.2	1.6
> COc1cccc(/C=N/Nc2ccc([N+](=O)[O-])cc2)c1O
→ 17.0	-8.4	-8.3	-2.5	-8.1	8.5
> Cn1c2ccccc2c2cnn(CC(=O)N3CCCCC3)c(=O)c21
→ ?	1.2	3.5	7.8	-8.0	0.9
> Cc1nccn1CCc1n[nH]c(=S)n1Cc1ccccc1
→ -2.6	8.5	7.8	-7.0	-6.6	-0.2
> NNC(=O)CCN(Cc1ccco1)S(=O)(=O)c1ccc(Cl)cc1
→ -8.3	-0.5	4.5	-14.1	-7.6	2.0
> O=[N+]([O-])c1cccc(-c2n[nH]c(=S)n2Cc2ccccc2)c1
→ 3.4	-4.4	1.2	1.3	28.1	-0.1
> C=CCn1c(-c2ccoc2)n[nH]c1=S
→ -0.7	1.9	10.8	-10.4	14.0	0.3
> Cc1cccc(-c2nc(CS(=O)CC(=O)NC3CCCCC3)c(C)o2)c1 (centres undefined)
→ -3.5	1.5	1.3	4.8	-1.1	-1.4
> COc1ccc(NS(=O)(=O)c2ccc(NC(=O)c3ccccc3Br)cc2)nn1
→ 4.5	0.1	17.7	-1.5	-5.0	0.6
> OCCCNC(=S)Nc1ccc2nc(-c3ccccn3)c(-c3ccccn3)nc2c1
→ .	0.8	-7.5	1.1	27.5	4.4
> COC(=O)C1=C(C(=O)c2ccc(C)cc2)C(c2ccc(OC)c(OC)c2)n2nnnc2N1 (centres undefined)
→ -0.4	6.6	-10.4	5.3	-23.0	-1.3
> CCc1nnc(NC(=O)C2CC(=O)N(Cc3ccco3)C2)s1 (centres undefined)
→ 14.0	-2.4	34.6	-1.6	-1.3	-0.6
> CC(=O)c1cccc(NC(=O)N2CCC(NC(=O)c3ccco3)CC2)c1
→ 6.2	-0.1	42.8	-0.9	-5.5	0.6
> C(=N\Nc1nc2ccccc2s1)/c1ccccn1
→ -13.0	-73.0*	27.9	-85.9*	-49.5	1.6
> Brc1ccc2nc(-c3cccs3)c(NCC3CCCO3)n2c1 (centres undefined)
→ -22.6	-10.8	-12.2	1.4	5.8	1.0
> CN(C)c1ccc(CNc2ccc3c(c2)ncn3C)cc1
→ -6.0	-4.6	4.7	-5.2	-4.8	-0.2
> COc1ccc(COC(=O)c2ccc(N3CCCC3=O)cc2)cc1F
→ -2.4	-0.2	-16.6	7.0	-17.1	-0.1
> CCC(C(=O)NN1C(=O)c2ccccc2C1=O)c1ccccc1 (centres undefined)
→ 6.2	0.6	16.7	0.6	-6.4	-0.8
> Fc1ccc(Br)cc1C1C=C(c2ccc(Br)s2)Nc2ncnn21 (centres undefined)
→ -18.6	-19.2	10.6	-7.4	-14.7	1.7
> CCCOc1ccc(CNC(=S)N/N=C/c2ccc([N+](=O)[O-])cc2)cc1
→ 0.5	-2.8	-13.9	-15.0	28.1	-0.4

# For convenience, part of the list above.
# Values in the order – TRPV1 potentiator	Six1-Eya2 blk	TRPML1 blocker	CtBP-E1A inh	D2 PAM	TRPML1 ag
> Fc1ccc(Br)cc1C1C=C(c2ccc(Br)s2)Nc2ncnn21 (centres undefined)
→ -18.6	-19.2	10.6	-7.4	-14.7	1.7
> CCCOc1ccc(CNC(=S)N/N=C/c2ccc([N+](=O)[O-])cc2)cc1
→ 0.5	-2.8	-13.9	-15.0	28.1	-0.4

# Assay outcomes: PubChem BioAssay, National Center for Advancing Translational Sciences (NCATS)
